Ran FRET – inhibitors of Ran–importin-beta complex formation, primary screen, biochemical, CFP-Ran/YFP-importin-beta FRET, RCC1, cell-free (AID 434961); Regulator of chromosome condensation (Homo sapiens) + GTP-binding nuclear protein Ran …; CFP-Ran/YFP-importin-beta FRET, cell-free; hits give high values; inhibition, %; 7,700 tested, 0.2% active;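 active means more than half of the replicate wells above 15% inhibition; inconclusive means exactly half above it; inactive means fewer than half above it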;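 further: 0% = DMSO wells and 100% inhibition = RanGDP control wells on each plate; stock of unstated strength diluted about 400-fold; mean of two wells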
Active calls of the source: *; u = inconclusive.

SMILES	Ran FRET
C[C@H](CO)N1C[C@H](C)[C@@H](CN(C)C(=O)Nc2cccc3ccccc23)Oc2ccc(NC(=O)Cn3cnnn3)cc2CC1=O	5.6
C[C@@H]1CN([C@@H](C)CO)C(=O)Cc2cc(NC(=O)NC3CCCCC3)ccc2O[C@H]1CN(C)C(=O)Nc1ccccc1	-1.5
C[C@H](CO)N1C[C@H](C)[C@H](CN(C)C(=O)Nc2cccc3ccccc23)Oc2ccc(NC(=O)CCC(F)(F)F)cc2CC1=O	1.8
CC(C)NC(=O)N(C)C[C@H]1Oc2c(NC(=O)C3CCOCC3)cccc2C(=O)N([C@H](C)CO)C[C@@H]1C	2.9
C[C@@H]1CN([C@@H](C)CO)C(=O)c2cc(NC(=O)CCCN(C)C)ccc2O[C@@H](C)CCCCO[C@H]1CN(C)S(=O)(=O)c1ccccc1	-1.9
C[C@H](CO)N1C[C@H](C)[C@@H](CN(C)C(=O)NC2CCCCC2)Oc2c(NC(=O)Nc3ccccc3)cccc2C1=O	10
C[C@@H]1CCCCO[C@H](CN(C)C)[C@@H](C)CN([C@H](C)CO)C(=O)c2cc(NC(=O)Nc3ccc(C(F)(F)F)cc3)ccc2O1	-1.5
C[C@H](CO)N1C[C@H](C)[C@H](CN(C)C)Oc2c(NS(=O)(=O)c3cn(C)cn3)cccc2C1=O	1.8
COc1ccc(CN(C)C[C@H]2Oc3c(NS(=O)(=O)c4cn(C)cn4)cccc3C(=O)N([C@H](C)CO)C[C@@H]2C)cc1	-0.1
C[C@@H]1CN([C@@H](C)CO)C(=O)c2cc(NC(=O)Cc3ccccc3)ccc2O[C@H]1CN(C)C(=O)Nc1ccccc1	3.6
C[C@@H]1CN([C@H](C)CO)C(=O)c2cc(NC(=O)Nc3ccc(C(F)(F)F)cc3)ccc2O[C@@H]1CN(C)C(=O)NC1CCCCC1	0.9
C[C@@H]1CN([C@@H](C)CO)C(=O)c2cccc(NC(=O)c3ccncc3)c2O[C@@H]1CN(C)C(=O)Nc1ccccc1	3.5
C[C@H]1CN([C@@H](C)CO)C(=O)c2cccc(NC(=O)C3CCOCC3)c2O[C@H]1CN(C)CC1CC1	0.2
COc1ccc(NC(=O)Nc2cccc3c2O[C@@H](CN(C)S(=O)(=O)c2ccc(OC)cc2)[C@@H](C)CN([C@H](C)CO)C3=O)cc1	1.7
C[C@H]1CCCCO[C@H](CN(C)Cc2ccncc2)[C@@H](C)CN([C@@H](C)CO)C(=O)c2cc(N(C)C)ccc2O1	-3.5
CNC[C@H]1Oc2c(NS(=O)(=O)c3ccc(OC)cc3)cccc2C(=O)N([C@@H](C)CO)C[C@@H]1C	-0.1
C[C@H]1CN([C@@H](C)CO)C(=O)c2cc(NC(=O)Cc3cn(C)c4ccccc34)ccc2O[C@H]1CN(C)CC1CC1	4.9
Cc1noc(C)c1S(=O)(=O)Nc1ccc2c(c1)C(=O)N([C@@H](C)CO)C[C@H](C)[C@H](CN(C)C(=O)Cc1ccccc1)OCCCC[C@H](C)O2	0.3
COc1ccc(S(=O)(=O)N(C)C[C@@H]2Oc3c(NC(=O)c4ccncc4)cccc3C(=O)N([C@H](C)CO)C[C@@H]2C)cc1	-0.9
C[C@H](CO)N1C[C@H](C)[C@@H](CN(C)S(=O)(=O)c2cccs2)Oc2ccc(NC(=O)Cc3cn(C)c4ccccc34)cc2CC1=O	-2.6
C[C@H](CO)N1C[C@H](C)[C@H](CN(C)CC2CC2)Oc2c(NS(C)(=O)=O)cccc2C1=O	4.8
C[C@H]1CN([C@@H](C)CO)C(=O)CCCn2cc(nn2)CO[C@@H]1CN(C)C(=O)c1ccccc1	0.3
Cc1noc(C)c1S(=O)(=O)N(C)C[C@@H]1Oc2ccc(NC(=O)C3CCCCC3)cc2CC(=O)N([C@H](C)CO)C[C@@H]1C	1.8
COc1ccc(S(=O)(=O)N(C)C[C@@H]2Oc3ccc(NC(=O)Nc4cccc5ccccc45)cc3CC(=O)N([C@@H](C)CO)C[C@H]2C)cc1	-5.9
C[C@@H]1CN([C@H](C)CO)C(=O)Cc2cc(NC(=O)Nc3ccc4c(c3)OCO4)ccc2O[C@H]1CN(C)C(=O)Nc1ccc2c(c1)OCO2	-6.5

More structures:
SMILES	Ran FRET
CNC[C@@H]1Oc2ccc(NC(=O)CCCN(C)C)cc2C(=O)N([C@H](C)CO)C[C@H]1C	1.3
C[C@@H]1CN([C@H](C)CO)C(=O)c2cc(NC(=O)NC3CCCCC3)ccc2O[C@H]1CN(C)C(=O)Nc1ccc(C(F)(F)F)cc1	7.9
Cc1noc(C)c1NC(=O)N(C)C[C@@H]1Oc2ccc(NC(=O)CCN3CCOCC3)cc2CC(=O)N([C@@H](C)CO)C[C@@H]1C	-0.8
C[C@@H]1CN([C@H](C)CO)C(=O)CCCn2nncc2CO[C@H]1CN(C)Cc1ccccc1	1.7
C[C@@H]1CN([C@@H](C)CO)C(=O)Cc2cc(NS(=O)(=O)c3ccccc3)ccc2O[C@H]1CN(C)C(=O)Nc1ccc2c(c1)OCO2	-0.8
CNC[C@H]1Oc2ccc(NC(=O)C3CC3)cc2C(=O)N([C@H](C)CO)C[C@H]1C	2.9
C[C@H](CO)N1C[C@H](C)[C@H](CN(C)Cc2ccncc2)Oc2ncc(C#Cc3ccc(C(F)(F)F)cc3)cc2C1=O	-0.8
Cc1noc(C)c1NC(=O)Nc1cccc2c1O[C@@H](CN(C)C(=O)Nc1c(C)noc1C)[C@H](C)CN([C@@H](C)CO)C2=O	4.6
C[C@@H]1CN([C@H](C)CO)C(=O)Cc2cc(NS(C)(=O)=O)ccc2O[C@@H]1CN(C)S(=O)(=O)c1cccs1	5.3
CC(C)NC(=O)Nc1ccc2c(c1)CC(=O)N([C@@H](C)CO)C[C@@H](C)[C@@H](CN(C)Cc1ccc(-c3ccccc3)cc1)O2	-2.3
CNC[C@H]1Oc2c(N)cccc2C(=O)N([C@@H](C)CO)C[C@@H]1C	0.0
C[C@@H]1CN([C@H](C)CO)C(=O)Cc2cc(NS(=O)(=O)c3cccs3)ccc2O[C@@H]1CN(C)C(=O)Nc1ccc2c(c1)OCO2	2.5
C[C@@H]1CN([C@@H](C)CO)C(=O)c2cc(NC(=O)C3CC3)ccc2O[C@@H]1CN(C)S(=O)(=O)c1cn(C)cn1	1.6
C[C@@H]1CCCCO[C@@H](CN(C)Cc2ccccc2)[C@H](C)CN([C@@H](C)CO)C(=O)c2cc(NC(=O)CCCN(C)C)ccc2O1	-2.5
C[C@H]1CN([C@@H](C)CO)C(=O)Cc2cc(NC(=O)CCN3CCOCC3)ccc2O[C@@H]1CN(C)Cc1ccc(-c2ccccc2)cc1	-0.7
C[C@@H]1CN([C@@H](C)CO)C(=O)c2cccc(NS(=O)(=O)c3cn(C)cn3)c2O[C@@H]1CN(C)Cc1ccc(Cl)c(Cl)c1	0.6
COc1ccc(S(=O)(=O)Nc2ccc3c(c2)CC(=O)N([C@@H](C)CO)C[C@@H](C)[C@H](CN(C)C)O3)cc1	0.7
C[C@H]1CN([C@@H](C)CO)C(=O)CCCn2cc(nn2)CO[C@@H]1CN(C)C(=O)c1ccc(N2CCN(C)CC2)cc1	-0.1
Cc1noc(C)c1NC(=O)Nc1cccc2c1O[C@@H](CN(C)S(=O)(=O)c1cccs1)[C@H](C)CN([C@@H](C)CO)C2=O	-3.6
C[C@@H]1CCCCO[C@H](CN(C)Cc2ccc(C(=O)O)cc2)[C@H](C)CN([C@H](C)CO)C(=O)c2cc(NC(=O)Nc3ccc(F)cc3)ccc2O1	-0.9
Cc1noc(C)c1NC(=O)N(C)C[C@H]1Oc2ccc(N(C)C)cc2CC(=O)N([C@H](C)CO)C[C@H]1C	3.6
COc1ccc(NC(=O)Nc2cccc3c2O[C@H](CN(C)C(=O)Nc2ccccc2)[C@H](C)CN([C@@H](C)CO)C3=O)cc1	-5.8
COc1ccc(S(=O)(=O)N(C)C[C@H]2Oc3ccc(NC(=O)Nc4ccc5c(c4)OCO5)cc3CC(=O)N([C@@H](C)CO)C[C@@H]2C)cc1	-3.5
Cc1noc(C)c1NC(=O)Nc1ccc2c(c1)CC(=O)N([C@@H](C)CO)C[C@@H](C)[C@@H](CN(C)S(=O)(=O)c1ccccc1)O2	4.9
C[C@@H]1CCCCO[C@@H](CN(C)C(=O)CCCN(C)C)[C@@H](C)CN([C@H](C)CO)C(=O)c2cc(NS(=O)(=O)c3ccccc3)ccc2O1	u

Structures shown so far with a thiophene ring, fused or not, in the order listed:
SMILES	Ran FRET
C[C@H](CO)N1C[C@H](C)[C@@H](CN(C)S(=O)(=O)c2cccs2)Oc2ccc(NC(=O)Cc3cn(C)c4ccccc34)cc2CC1=O	-2.6
C[C@@H]1CN([C@H](C)CO)C(=O)Cc2cc(NS(C)(=O)=O)ccc2O[C@@H]1CN(C)S(=O)(=O)c1cccs1	5.3
C[C@@H]1CN([C@H](C)CO)C(=O)Cc2cc(NS(=O)(=O)c3cccs3)ccc2O[C@@H]1CN(C)C(=O)Nc1ccc2c(c1)OCO2	2.5
Cc1noc(C)c1NC(=O)Nc1cccc2c1O[C@@H](CN(C)S(=O)(=O)c1cccs1)[C@H](C)CN([C@@H](C)CO)C2=O	-3.6

Additional results follow.
SMILES	Ran FRET
C[C@H](CO)N1C[C@H](C)[C@H](CN(C)Cc2ccccc2)Oc2c(NC(=O)C3CCOCC3)cccc2C1=O	-5.5
CC(C)NC(=O)N(C)C[C@@H]1Oc2ccc(NS(=O)(=O)c3ccccc3)cc2C(=O)N([C@@H](C)CO)C[C@H]1C	5.7
C[C@H](CO)N1C[C@H](C)[C@H](CN(C)C(=O)Nc2ccccc2)Oc2ncc(-c3cccc(C(F)(F)F)c3)cc2C1=O	2.6
C[C@@H]1CN([C@@H](C)CO)C(=O)c2cccc(NS(=O)(=O)c3cccs3)c2O[C@H]1CN(C)Cc1ccc(C(F)(F)F)cc1	-3.1
C[C@H](CO)N1C[C@H](C)[C@H](CN(C)C(=O)Nc2ccc(N3CCCCC3)cc2)OCc2cn(nn2)CCCC1=O	1.7
CNC[C@@H]1Oc2ccc(NS(=O)(=O)c3ccc(Cl)cc3)cc2CC(=O)N([C@H](C)CO)C[C@@H]1C	0.9
C[C@@H]1CCCCO[C@H](CN(C)Cc2ccccc2)[C@H](C)CN([C@H](C)CO)C(=O)c2cc(NC(=O)CCC(F)(F)F)ccc2O1	-1.8
C[C@H]1CN([C@@H](C)CO)C(=O)CCCn2cc(nn2)CO[C@H]1CN(C)C(=O)CCCN(C)C	-3.1
Cc1noc(C)c1NC(=O)Nc1cccc2c1O[C@@H](CN(C)Cc1ccc(C(=O)O)cc1)[C@@H](C)CN([C@@H](C)CO)C2=O	0.5
CC(C)NC(=O)Nc1ccc2c(c1)C(=O)N([C@H](C)CO)C[C@@H](C)[C@H](CN(C)S(=O)(=O)c1cn(C)cn1)OCCCC[C@@H](C)O2	-2.5
C[C@@H]1CN([C@@H](C)CO)C(=O)c2cccc(NC(=O)c3ccc(-c4nccs4)cc3)c2O[C@@H]1CN(C)CC1CC1	3.8
Cc1noc(C)c1NC(=O)N(C)C[C@@H]1Oc2c(cccc2N(C)C)C(=O)N([C@H](C)CO)C[C@H]1C	3.3
C[C@@H]1CN([C@@H](C)CO)C(=O)c2cc(NC(=O)CCC(F)(F)F)ccc2O[C@@H](C)CCCCO[C@H]1CN(C)S(=O)(=O)c1ccccc1	4.5
COc1ccc(CN(C)C[C@H]2Oc3ccc(NC(=O)CCN4CCOCC4)cc3C(=O)N([C@@H](C)CO)C[C@H]2C)cc1	3.4
C[C@@H]1CN([C@@H](C)CO)C(=O)Cc2cc(NS(C)(=O)=O)ccc2O[C@H]1CN(C)S(=O)(=O)c1cn(C)cn1	-2.8
C[C@H]1CCCCO[C@@H](CN(C)Cc2ccncc2)[C@@H](C)CN([C@@H](C)CO)C(=O)c2cc(NC(=O)c3ccncc3)ccc2O1	-3.2
C[C@@H]1CN([C@H](C)CO)C(=O)c2cccc(NS(=O)(=O)c3ccccc3)c2O[C@H]1CN(C)C(=O)Nc1ccc2c(c1)OCO2	3.7
C[C@@H]1CN([C@H](C)CO)C(=O)CCCn2cc(nn2)CO[C@H]1CN(C)S(=O)(=O)c1cn(C)cn1	-0.8
Cc1ccc(S(=O)(=O)N(C)C[C@@H]2Oc3ccc(NC(=O)C4CC4)cc3CC(=O)N([C@@H](C)CO)C[C@H]2C)cc1	-4.1
CNC[C@@H]1OCCCC[C@@H](C)Oc2ccc(NC(=O)NC(C)C)cc2C(=O)N([C@H](C)CO)C[C@@H]1C	-3.5
C[C@H]1CCCCO[C@@H](CN(C)S(=O)(=O)c2cn(C)cn2)[C@@H](C)CN([C@@H](C)CO)C(=O)c2cc(NS(=O)(=O)c3cn(C)cn3)ccc2O1	6.3
Cc1noc(C)c1S(=O)(=O)Nc1ccc2c(c1)C(=O)N([C@@H](C)CO)C[C@@H](C)[C@H](CN(C)C(=O)Nc1ccccc1)O2	0.0
Cc1noc(C)c1S(=O)(=O)Nc1ccc2c(c1)CC(=O)N([C@@H](C)CO)C[C@H](C)[C@H](CN(C)Cc1ccc(-c3ccccc3)cc1)O2	4.9
COc1ccc(S(=O)(=O)N(C)C[C@H]2Oc3ccc(NC(=O)CCN4CCOCC4)cc3C(=O)N([C@@H](C)CO)C[C@@H]2C)cc1	-2.0
C[C@@H]1CN([C@H](C)CO)C(=O)Cc2cc(NC(=O)C3CC3)ccc2O[C@@H]1CN(C)Cc1ccc2c(c1)OCO2	-3.9

By substructure, the compounds so far containing a Cl atom.
SMILES	Ran FRET
C[C@@H]1CN([C@@H](C)CO)C(=O)c2cccc(NS(=O)(=O)c3cn(C)cn3)c2O[C@@H]1CN(C)Cc1ccc(Cl)c(Cl)c1	0.6
CNC[C@@H]1Oc2ccc(NS(=O)(=O)c3ccc(Cl)cc3)cc2CC(=O)N([C@H](C)CO)C[C@@H]1C	0.9

From PubChem BioAssay

These rows are one share of the data; the hit share may differ from the screen's.
